Source: PubChem (several laboratories)
Yeast UUG start: modulators of yeast start codon fidelity, primary screen, whole organism, S. cerevisiae, single point, plate reader | S. cerevisiae UUG-firefly luciferase reporter, luminescence/redox ratio | activity score, % at 18.7 µM | hit rate 0.13% among 350,000;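 active = replicate mean at a twofold rise or more, about +100% in these data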;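 note: firefly luciferase made from a UUG start codon reports start codon fidelity; reporter light over untreated wells divided by growth signal over untreated wells; some hits fall short of that in this replicate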
Rce1 inh: yeast Rce1p protease inhibitors, primary screen, biochemical, fluorescence, cell-free homogeneous. yeast membranes, quenched prenylated peptide cleavage fluorescence. hit rate 0.27% among 290,000. calls only. AID 2563, 2010. CAAX prenyl protease 2 (Saccharomyces cerevisiae (strain ATCC 204508 / S288c)), Q03530;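 active = fall in fluorescence gain of 50% or more versus controls, with final raw signal at or below 3038400; inconclusive = same 50% fall but final raw signal above 3038400; inactive = fall in fluorescence gain under 50%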;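 note: plate controls were neutral control wells for no effect and wells lacking membranes for full effect; tested at 10 µM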
Target sequence (Q03530 whole entry, looked up): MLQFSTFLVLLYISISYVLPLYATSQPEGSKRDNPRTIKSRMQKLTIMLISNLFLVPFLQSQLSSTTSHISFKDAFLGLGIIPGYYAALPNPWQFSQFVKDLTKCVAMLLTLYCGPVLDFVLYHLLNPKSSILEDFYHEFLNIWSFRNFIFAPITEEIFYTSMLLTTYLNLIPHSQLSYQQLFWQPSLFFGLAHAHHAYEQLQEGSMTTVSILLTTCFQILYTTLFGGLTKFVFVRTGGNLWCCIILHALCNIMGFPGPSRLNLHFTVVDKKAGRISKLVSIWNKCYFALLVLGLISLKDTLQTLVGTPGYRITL
eIF4H FP inh: human eIF4H binding inhibitors, primary screen, translation initiation inhibitor project, biochemical, uHTS, fluorescence polarization | AID 2012, 2009 | Eukaryotic translation initiation factor 4H (Homo sapiens), Q15056 | inhibition, % at 35 µM | eIF4H fluorescence polarization binding assay | hit rate 0.94% among 290,000;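 active = 50% or more with normal probe brightness, or confirmed in later tests; inconclusive = above 50% with abnormal brightness, or retests that disagree; inactive = below 50% or failed in later tests; about a fifth of its hits are not listed in these tables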;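 note: calls also rest on retests at 20 µM and on dose response follow-up; 0% = protein and probe with vehicle and 100% = probe without protein; strong numbers were not always called active; many hits fall short of the cut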
PABP polyA inh: PABP poly(A) RNA binding inhibitors, primary screen, biochemical, fluorescence polarization, uHTS; inhibition, % at 35 µM; hit rate 1% among 290,000; Polyadenylate-binding protein 1 (Homo sapiens), P11940;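 active = 50% or more with normal probe brightness, or confirmed in later tests; inconclusive = above 50% with abnormal brightness, or retests that disagree; inactive = below 50% or failed in later tests; about a fifth of its hits are not listed in these tables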;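 note: calls also rest on retests at 20 µM and on dose response follow-up; controls were probe without protein and protein plus probe with vehicle; some compounds called inactive have numbers as strong as hits; many hits fall short of the cut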
CSC inhib: cancer stem cell viability inhibitors, primary screen, luminescence; hit rate 1.1% among 300,000; cancer stem cell-like cells viability; inhibition, % at 7.5 µM;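 active = mean at 75% or more and at least half the replicates too; inconclusive = mean and replicates disagree; tested in HMLE shEcad cells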;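 note: 0% = median of negative and 100% = median of positive control wells; the first replicate is given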
Env fusion inh: inhibitors of HIV-1 Env-driven cell-cell fusion, primary screen, HeLa-JRFL effector, CEM21 target cells, luciferase | inhibition, % at 12.3 µM | hit rate 1.1% among 360,000;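 active = mean replicate inhibition score of at least 50 and every replicate individually at or above 50; inconclusive = only one of the two criteria met; inactive = mean below 50 and not all replicates reaching 50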;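 note: 0% = plate neutral controls and 100% = maraviroc near 300 nM; one replicate is shown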
MT1-MMP act inh: blockers of MT1-MMP proenzyme processing, primary screen, HT1080 RFP-PRO-GFP cells, GFP/RFP fluorescence; hit rate 0.061% among 360,000; GFP/RFP ratio fluorescence, overnight; percent of plate control window, DMSO zero; AID 651647, 2012; Matrix metalloproteinase-14 (Homo sapiens), P50281; GFP/RFP ratio change, % at 20 µM;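 active = GFP/RFP ratio change of at least 30% with cell ATP level not reduced by more than half and red fluorescence within 50% of control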; note: strong numbers were not always called active
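Compound: 20 µM single dose, 1% DMSO / System: HT1080 RFP-PRO-GFP cells / Controls: DMSO and RFP-L50D-GFP cell wells / Read-out basis: GFP/RFP fluorescence ratio / Schedule: overnight compound exposure at 37 °C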
eIF4H FP inh retest: second read-out of eIF4H FP inh, no call of its own (marks repeat the call); inhibition, %; compound at 20 µM; confirmation average;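 mean of two retest wells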
PABP polyA inh retest: also measured in PABP polyA inh; calls as there; inhibition, %; compound at 20 µM; confirmation repeats;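 mean of two retest wells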
MT1-MMP act inh RFP: recorded beside MT1-MMP act inh, whose call it bears; RFP signal change, %; measured here: RFP expression control read;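 0 = vehicle wells; hits needed this value within 50% of zero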
Active calls of the source: *; i = inactive; ? = inconclusive; nt = not tested or not shown.

SMILES	Yeast UUG start	Rce1 inh	eIF4H FP inh	PABP polyA inh	CSC inhib	Env fusion inh	MT1-MMP act inh	MT1-MMP act inh RFP	others
N#C/C(=C\c1ccc(Cl)cc1)c1nc2ncccc2[nH]1	-12	i	-3	0	25	nt	-9	5
CC(C)(C)c1ccc(-c2nnc(SCC(=O)NCC3CCCO3)n2N)cc1 (stereo not drawn)	-2	nt	nt	nt	-3	nt	1	5
O=C(COC(=O)/C=C/c1cccc(Cl)c1)NC(=O)NCc1ccccc1	-12	nt	nt	nt	5	nt	7	4
Cc1ccccc1OCC(=O)OCC(=O)NCc1ccc2c(c1)OCO2	-7	nt	nt	nt	-14	-7	5	5
Cc1cccc(NC(=O)c2cccc3c2-c2ccccc2C3=O)n1	-6	i	-7	-11	6	-1	-2	0
Cc1cc(NC(=O)c2ccco2)ncc1NC(=O)Cc1ccccc1	-7	i	0	0	-7	nt	-4	-1
COc1ccc(NC(=O)Cn2nnc(C(=O)NCc3cccs3)c2N)cc1	nt	i	-6	-4	-15	25	-2	0
Cc1ccc(CNC(=O)CNS(=O)(=O)c2cccc3nsnc23)cc1	-11	i	-8	-2	-14	nt	2	0
C=CC[C@@H](Cc1ccc(F)cc1)C(=O)OC[C@H]1CCCN1C(=O)[C@H](CC=C)CC(=O)N[C@H](CO)Cc1ccccc1	5	nt	nt	nt	nt	-38	-5	-3
CNC(=O)c1ccsc1NC(=O)c1ccc(S(=O)(=O)N2CCCc3ccccc32)cc1	-19	i	15	2	25	16	-1	-23
Cc1ccnc(N2CCC(C(=O)NNC(=O)c3ccncc3)CC2)n1	nt	i	1	-7	3	-3	-4	-1
O=C(NC(=S)Nc1ccc(C(=O)N2CCOCC2)cc1)c1ccc([N+](=O)[O-])cc1	-20	i	0	-8	1	28	4	-2
Cc1ccc(N2CC(C(=O)Nc3ccc(N4CCOCC4)cc3)CC2=O)cc1C (stereo not drawn)	-13	i	-1	2	3	6	3	7
CCNS(=O)(=O)c1ccc2nc(NC(=O)c3cccnc3)sc2c1	-12	i	5	2	-12	2	6	-1
COc1ccc(/C=C2/CC/C(=C\c3ccc(OC)c(OC)c3OC)C2=O)c(OC)c1OC	-10	i	5	-2	-4	10	2	-3
CC(C)CNC(=O)C(=O)Nc1cc2c3c(c1)CCC(=O)N3CCC2	-9	i	-9	-3	-19	-8	3	4
CCSc1nnc(NC(=O)COc2ccccc2)s1	-20	i	-10	5	-4	nt	2	1
CN(C1CCCCC1)S(=O)(=O)c1ccc(C(=O)O)cc1	-1	i	-13	3	-13	nt	0	4
CCN(CC)CCNC(=O)CCc1n[nH]c(=O)c2ccccc12	-9	i	-1	-11	-21	nt	2	7
CCOc1ccc(C2N(c3cc(Cl)ccc3OC)C(=O)C3CCCN32)cc1OC (stereo not drawn)	12	i	-4	-7	11	-6	5	4
CCc1ccccc1NC1=NCC(=O)N1Cc1ccc(OC)cc1	-25	i	-13	21	-19	-18	5	3
CC1(C)CSC(=S)N1S(=O)(=O)c1ccccc1	7	i	-11	3	0	-6	4	5
COc1cc(/C=C/c2nc3ccccc3c(=O)[nH]2)ccc1OC(F)F	-4	i	-4	4	7	-67	-3	-3
CC/C(O)=C1\C(=O)CC(c2ccccc2)CC1=NCCc1c(C)[nH]c2ccc(C)cc12 (stereo not drawn)	-4	i	7	18	24	16	-25	-24
O=C(c1cccnc1Nc1ccc2c(c1)CCC2)N1CCOCC1	-5	i	-7	0	1	nt	-2	-1
CC(CC(=O)Nc1ccc2c(c1)c(=O)n(C)n2-c1ccccc1)c1ccccc1 (stereo not drawn)	4	nt	nt	nt	nt	-286	8	-5
COc1ccccc1/C=C/C=N/NC(=O)c1cc(-c2ccc(C)o2)[nH]n1	nt	i	-1	-10	47	-4	4	-4
C=C(C)CCC(C)N1CCC(n2nccc2NC(=O)CCOc2ccccc2)CC1 (stereo not drawn)	-2	i	3	9	6	nt	2	3
CCOC(=O)/C(C#N)=C/c1c(Oc2cc(C)cc(C)c2)nc2ccccn2c1=O	-4	i	2	12	-6	6	-1	3
COc1ccc(C=NOCC(=O)OCC(=O)Nc2ccc(OC)cc2)cc1	-10	nt	nt	nt	-8	nt	-2	3
Cc1ccc2oc(=O)c3cnn(CC(=O)NC4CCC(C)CC4)c3c2c1 (stereo not drawn)	5	i	1	-9	13	-17	4	6
COc1cccc(/C=C2\SC(N)=NC2=O)c1OS(=O)(=O)c1ccccc1	nt	i	-2	-2	12	0	0	-1
CC(C)(C)c1ccc(C(CC(=O)O)NC(=O)c2ccccc2F)cc1 (stereo not drawn)	nt	i	3	-8	-2	?	0	3
COC(=O)[C@H](CC(C)C)NC(=O)NCc1ccc(Cl)cc1	-10	i	-9	-8	-8	10	1	-4
O=C1CCCC2=C1C1c3ccccc3C(=O)N1c1ccc(C(=O)c3ccccc3)cc1N2 (stereo not drawn)	11	i	-3	5	-2	nt	-4	-10
COCCNC(=S)NNC(=O)c1ccc(-n2cnnn2)cc1	nt	i	-8	14	-9	10	1	0
CCOc1ccc(NC(=O)Cn2nnc(C(=O)NCc3cccs3)c2N)cc1	-9	i	3	-1	-4	-27	2	-7
COC(=O)CN1C(C)=Nc2ccc(Br)cc2C1c1ccccc1 (stereo not drawn)	-9	i	-7	8	-2	9	-5	2
Nc1c(C(=O)O)cnc2nc(N3CCOCC3)nn12	nt	i	?	?	-4	0	0	2
CC(C)c1cc(C(=O)OCC(=O)N2CCN(C(=O)c3ccco3)CC2)c(O)c(C(C)C)c1	-5	i	15	13	3	13	3	2
COCC(=O)Nc1nc2n(n1)C(c1ccc(Cl)cc1)CC(c1ccc(OC)cc1)N2 (stereo not drawn)	-8	i	6	7	-16	nt	-15	-4
CC(C)COc1ccc(C(=O)N(CC(=O)Nc2ccccc2C(F)(F)F)Cc2ccco2)cc1	nt	i	nt	nt	nt	14	3	2
COc1ccc(-c2nc3c(c(=O)c4ccccc4n3C)c(=O)n2Cc2ccccc2)cc1	nt	i	3	69	10	-10	1	3	eIF4H FP inh retest=-6;PABP polyA inh retest=-4
Cc1[nH]c2ccc(Br)cc2c(=O)c1CN1CCCCCC1	-6	i	-2	0	-13	0	-5	2
CC(=O)N1CCN(C(=O)C2CCN(S(=O)(=O)c3ccccc3C(F)(F)F)CC2)CC1	-12	nt	nt	nt	-4	16	-2	3
Cc1ccc(C2=C/C(=C/c3cccnc3)C(=O)O2)c(C)c1	nt	i	11	10	-5	14	1	5
O=C1c2ccccc2NC(c2ccc(-c3ccccc3F)o2)N1O (stereo not drawn)	-23	nt	nt	nt	10	-67	3	-3
CCCS(=O)(=O)N1CCCC(C(=O)Oc2ccc(Cl)cc2)C1 (stereo not drawn)	-4	i	4	5	-10	2	2	2

Continued; the last two above are carried over.
SMILES	Yeast UUG start	Rce1 inh	eIF4H FP inh	PABP polyA inh	CSC inhib	Env fusion inh	MT1-MMP act inh	MT1-MMP act inh RFP	others
O=C1c2ccccc2NC(c2ccc(-c3ccccc3F)o2)N1O (stereo not drawn)	-23	nt	nt	nt	10	-67	3	-3
CCCS(=O)(=O)N1CCCC(C(=O)Oc2ccc(Cl)cc2)C1 (stereo not drawn)	-4	i	4	5	-10	2	2	2
CC1=C(C(=O)OCc2ccccc2)C(c2ccccc2Cl)NC(=O)N1CCCC(=O)O (stereo not drawn)	-17	i	0	-7	-1	1	3	1
c1ccc2c(Nc3nc(-c4ccncc4)nc4ccccc34)cccc2c1	-10	i	0	18	?	29	-3	-7
CCOc1cc(/C=C2/NC(=O)NC2=O)cc(Br)c1OCc1ccc(C(=O)O)cc1	nt	i	102	3	-11	-8	6	6	eIF4H FP inh retest=-2;PABP polyA inh retest=-6
CCOc1ccc(N/C(SCc2cccc([N+](=O)[O-])c2)=C(/C#N)C(N)=O)cc1	nt	i	-13	8	-1	15	-5	-11
COc1ccc(Nc2nc3ccccc3n3cnnc23)cc1	-11	i	0	8	nt	3	1	3
S=C(NC1CCCCC1)N1CCN(c2ccccn2)CC1	nt	i	1	18	-11	23	2	2
COc1cc(/C=N/O)c(Br)cc1OCC(=O)Nc1ccccc1C	-1	i	-9	0	6	nt	2	-5
N#Cc1ccc(N2CCOCC2)nc1	nt	nt	-6	-5	-7	13	4	3
CCSC1=C(C#N)C(c2ccc(F)cc2)CC(=O)N1 (stereo not drawn)	-10	nt	4	1	nt	-1	0	2
CCCC(=O)Nc1ccc2nc(SCC(=O)Nc3nccs3)sc2c1	-12	i	-8	9	11	nt	2	-5
NC1=NC(c2cccc(Cl)c2)N(CCc2ccc(F)cc2)C(N)=N1 (stereo not drawn)	-13	i	-8	-13	-3	-18	1	-4
COc1ccc(NC(=O)COC(=O)c2cc(OC)c(OC)cc2NC(=O)c2ccco2)cc1OC	3	i	-10	3	-11	-249	4	0
O=C(O)/C=C/C(=O)N1CCN(C(c2ccccc2)c2ccccc2)CC1	-4	i	2	-4	-5	-9	-16	-4
CC1(C)NC(=O)N(CCOCCOc2ccc3ccccc3c2Br)C1=O	9	i	3	-6	8	27	1	-6
Cc1nc(C(F)(F)F)nc(Nc2ccc(Br)cc2)c1C#N	4	i	-5	-3	1	nt	-2	-6

Structural class: the entries above containing fluorine
SMILES	Yeast UUG start	Rce1 inh	eIF4H FP inh	PABP polyA inh	CSC inhib	Env fusion inh	MT1-MMP act inh	MT1-MMP act inh RFP	others
C=CC[C@@H](Cc1ccc(F)cc1)C(=O)OC[C@H]1CCCN1C(=O)[C@H](CC=C)CC(=O)N[C@H](CO)Cc1ccccc1	5	nt	nt	nt	nt	-38	-5	-3
COc1cc(/C=C/c2nc3ccccc3c(=O)[nH]2)ccc1OC(F)F	-4	i	-4	4	7	-67	-3	-3
CC(C)(C)c1ccc(C(CC(=O)O)NC(=O)c2ccccc2F)cc1 (stereo not drawn)	nt	i	3	-8	-2	?	0	3
CC(C)COc1ccc(C(=O)N(CC(=O)Nc2ccccc2C(F)(F)F)Cc2ccco2)cc1	nt	i	nt	nt	nt	14	3	2
CC(=O)N1CCN(C(=O)C2CCN(S(=O)(=O)c3ccccc3C(F)(F)F)CC2)CC1	-12	nt	nt	nt	-4	16	-2	3
O=C1c2ccccc2NC(c2ccc(-c3ccccc3F)o2)N1O (stereo not drawn)	-23	nt	nt	nt	10	-67	3	-3
CCSC1=C(C#N)C(c2ccc(F)cc2)CC(=O)N1 (stereo not drawn)	-10	nt	4	1	nt	-1	0	2
NC1=NC(c2cccc(Cl)c2)N(CCc2ccc(F)cc2)C(N)=N1 (stereo not drawn)	-13	i	-8	-13	-3	-18	1	-4
Cc1nc(C(F)(F)F)nc(Nc2ccc(Br)cc2)c1C#N	4	i	-5	-3	1	nt	-2	-6

An excerpt; count on the stated rates, not on these rows.
